Assay outcomes: PubChem, National Center for Advancing Translational Sciences (NCATS)
RE007 growth inh = less growth of the S. pombe RE007 Vpr strain; S. pombe RE007 Vpr strain, BacTiter-Glo ATP luminescence, 24 h; control for the full effect not named in the record; AID 651644; actives 0.21% (n = 360,000); Potency, µM (titrated, usually from 92.2 µM), for the others: at the highest dose activity change, negative = less growth; active = well fitted falling curve with a large enough effect; inconclusive = small, poorly fitted or top-dose-only effect; inactive = no such curve, though single readings can be large or run the other way;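 further: on the % scale 0 is the no-effect control and ±100 the full control effect; nearly all actives have a fitted effect of over 50% in size; the assay follows cell death caused by Vpr and the record does not say whether a fall means rescue or toxicity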
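Fission yeast RE007 carrying one integrated HIV-1 vpr copy, seeded at OD 0.01 in PMG+AL medium with 23 nL pinned compound. Grown 24 h at 30 degrees; viability read by BacTiter-Glo luminescence after 5 min.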
2A StopGo = FMDV 2A StopGo reporter, luciferase signal; Potency, µM (top dose mostly 57.9 µM), without a hit: at the top dose signal change, negative = less light; human cells with a luciferase reporter of 2A StopGo recoding; control for the full effect not named in the record; actives 1.2% (n = 410,000); active = well fitted falling curve with a large enough effect; inconclusive = small, poorly fitted or top-dose-only effect; inactive = no such curve, though single readings can be large or run the other way; tested in HEK293T cells; further: on the % scale 0 is the no-effect control and ±100 the full control effect; nearly all actives have a fitted effect of over 45% in size; luciferase light after 4 h
NS1 function inh = inhibitors of influenza NS1 protein function | actives 0.4% (n = 270,000) | S. cerevisiae slowed by influenza A NS1, growth recovery by OD600 | Potency, µM (doses to about 46.1 µM), inactives show top-dose activity, positive = more growth; active means well fitted rising curve with a large enough effect; inconclusive means small, poorly fitted or top-dose-only effect; inactive means no such curve, though single readings can be large or run the other way; further: nearly all actives have a fitted effect of over 50% in size
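Growth recovery, yeast-based: influenza A NS1 expressed in S. cerevisiae causes slow growth, and suppressors are detected by OD600. The parent strain without NS1 is used as positive control.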
Marburg entry inh = Marburg virus entry inhibition; Marburg virus pseudotyped entry inhibition, cell reporter; control for the full effect not named in the record; about a third of the inactives were read at about 46 µM; Potency, µM (top dose mostly 37.8 µM), inactives show at the highest dose activity change, negative = inhibition, most hits filed as inhibitors; actives 1.8% (n = 300,000); AID 540276; active = well fitted inhibition curve with a large enough effect; inconclusive = small, poorly fitted or top-dose-only effect, or effect the other way; inactive = flat fitted curve, though single readings scatter; tested in HEK293 cells; about a fifth of its hits are not listed in these tables; further: on the % scale 0 is the no-effect control and ±100 the full control effect; luciferase read-out
Cruzain noTriton = cruzain (T. cruzi) inhibition without detergent. purified cruzain, Z-FR-AMC fluorescence, no detergent. Potency, µM, for the others: max response, negative = inhibition, usual class: inhibitors. P25779. AID 1476. actives 2.3% (n = 200,000);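 further: plate controls were enzyme without inhibitor for no effect and buffer without enzyme for full effect; nearly all actives have a fitted effect of over 40% in size; top concentration of the series not given in the record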
Target sequence (P25779 123-467 limits assumed): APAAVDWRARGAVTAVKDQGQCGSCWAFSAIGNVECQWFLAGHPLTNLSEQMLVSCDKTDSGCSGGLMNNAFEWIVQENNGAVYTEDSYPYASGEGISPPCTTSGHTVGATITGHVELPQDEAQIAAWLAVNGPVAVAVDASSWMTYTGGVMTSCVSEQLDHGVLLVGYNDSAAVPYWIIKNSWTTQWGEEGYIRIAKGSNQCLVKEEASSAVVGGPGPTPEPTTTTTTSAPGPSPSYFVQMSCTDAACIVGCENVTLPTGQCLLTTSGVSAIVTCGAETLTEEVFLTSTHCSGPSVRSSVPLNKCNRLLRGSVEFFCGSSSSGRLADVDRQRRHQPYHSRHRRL
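Detergent-free condition (0.00005% Triton X-100) in acetate buffer pH 5.5 with DTT. 1.5 nM enzyme and compound were pre-mixed 15 min, then 2 uM Z-FR-AMC substrate added; reaction progress from fluorescence change between first and third reads (60 s).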
LASV entry inh = Lassa virus entry inhibition; Lassa virus pseudotype entry inhibition, cell reporter; control for the full effect not named in the record; Potency, µM (series often up to 37.9 µM), for inactives: at the highest dose activity change, negative = inhibition, usual class: inhibitors; actives 1.2% (n = 300,000); AID 540256; active means well fitted inhibition curve with a large enough effect; inconclusive means small, poorly fitted or top-dose-only effect, or effect the other way; inactive means flat fitted curve, though single readings scatter; tested in HEK293 cells; further: on the % scale 0 is the no-effect control and ±100 the full control effect; nearly all actives have a fitted effect of over 50% in size; luciferase read-out
Cruzain Triton = blocks cruzain activity in presence of Triton detergent; P25779; purified cruzain, Z-FR-AMC fluorescence, 0.01% Triton; Potency, µM, for inactives: max response, negative = inhibition, usual class: inhibitors; actives 0.43% (n = 200,000); AID 1478;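 further: plate controls were neutral wells for no effect and buffer without enzyme for full effect; nearly all actives have a fitted effect of over 40% in size; top concentration of the series not given in the record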
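Purified cruzain (1.5 nM final) was preincubated with compounds for 15 min at room temperature in 100 mM sodium acetate pH 5.5, 5 mM DTT, 0.01% Triton X-100. Reaction started with 2 uM Z-FR-AMC; AMC fluorescence change over 60 s gave activity.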
SARS PLpro yeast = inhibitors of SARS-CoV papain-like protease in yeast; S. cerevisiae expressing SARS-CoV PLpro, growth rescue; control for the full effect not named in the record; Potency, µM (series often up to 32.9 µM), for inactives: at the highest dose activity, positive = growth rescue; actives 0.19% (n = 330,000); AID 485353; active means well fitted rising curve with a large enough effect; inconclusive means small, poorly fitted or top-dose-only effect; inactive means no such curve, though single readings can be large or run the other way; further: 0% is about no effect; nearly all actives have a fitted effect of over 55% in size; growth read by luminescence after 48 h
* = called active by the depositor; ? = inconclusive; nt = not tested or not shown; & = joins results of further samples; [ ] = dose if it differs, or a comment. Unless noted, the call rests on the fitted dose curve; in most records, active means well fitted curve in the direction sought with a large enough effect; inconclusive means small, poorly fitted or top-dose-only effect, or another doubt; inactive means no such curve, though single readings can be large; an effect the other way counts as inactive or inconclusive. Potency means the concentration at half of the fitted maximal effect.

Each structure is followed by: RE007 growth inh	2A StopGo	NS1 function inh	Marburg entry inh	Cruzain noTriton	LASV entry inh	Cruzain Triton	SARS PLpro yeast
COC(=O)c1ccc(Nc2nc(-c3ccccc3Cl)nc3ccccc23)cc1
 : nt	?	nt	nt	5.3%	?	-7.5%	nt
CCOC(=O)/C(C(=Nc1ccccc1)Nc1ccccc1)=C(\C)O
 : 0.7%	-4.1%	12.6%	nt	nt	nt	nt	2.3%
CCOc1cc(CNc2ccccc2)cc(Br)c1OCC(=O)NC(C)(C)C
 : 5.5%	nt	-60.2%	?	1.8%	?	-6.9%	-15.3%
COc1ccc2nc3c(cc2c1)c(NC(=O)C1CCCO1)nn3CC(C)C (stereo not drawn)
 : -5.3%	5.8%	-63.1%	?	?	-4.5%	-2.2%	1.3%
Cc1ccc(OCCn2c(SCCO)nc3c(N)ncnc32)cc1
 : -8.2%	?	-0.1%	nt	nt	nt	nt	-0.7%
CCOC(=O)c1c(NC(=O)CSc2nnc(-c3ccccc3)o2)sc(C(C)=O)c1C
 : -3.6%	?	-0.3%	-18.7%	-15.5%	-16.8%	-3.6%	14.4%
CCCC(=O)C1=C(O)C(C(=O)OC)C(C)(C)CC1=Nc1ccc(Br)cc1 (stereo not drawn)
 : -7.9%	?	-4.5%	-42.7%	nt	-15.4%	nt	-1.2%
CC(Sc1nnc2n1CCCCC2)C(=O)Nc1ccc(S(N)(=O)=O)cc1 (stereo not drawn)
 : -1.6%	-15.3%	nt	?	nt	3.9%[46.1 µM]	nt	23.0%
COC(=O)c1c(NC(=O)CC2Nc3ccccc3NC2=O)sc(C)c1C (stereo not drawn)
 : 2.4%	-10.1%	-7.5%	-6.5%	-9.8%	9.3%	1.2%	-4.2%
COc1ccc(C(=S)N2CCOCC2)cc1OC(=O)c1cc(OC)c(OC)c(OC)c1
 : -3.0%	-20.6%	5.0%	-5.6%[46.1 µM]	nt	-25.4%	nt	0.8%
CCc1cccc(C)c1NS(=O)(=O)c1cccs1
 : 0.1%	8.0%	-5.9%	1.9%[46.1 µM]	nt	-20.4%	nt	0.6%
Cc1ccc(S(=O)(=O)CCC(=O)OCc2ccccc2F)cc1
 : 31.3%	1.6%	-6.1%	0.7%[46.1 µM]	nt	9.4%	nt	-0.2%
Cc1ccc(C2CC(c3cccs3)=NN2C(=O)CSC2=NN3CCCC(=O)N=C3S2)cc1 (stereo not drawn)
 : -12.1%	-5.4%	15.3%	nt	9.4%	nt	-11.8%	-5.8%
CC1=C(C(=O)OCC2CCCO2)C(c2ccccc2OC(C)C)C2=C(CC(c3ccco3)CC2=O)N1 (stereo not drawn)
 : -1.1%	-15.7%	?	-4.4%	?	-16.4%	-10.1%	-2.6%
CCC(C)n1c(=S)[nH]c2ccccc2c1=O (stereo not drawn)
 : -8.7%	-29.4%	-23.9%	23.4%[46.1 µM]	nt	15.5%	nt	0.3%
CC1=CC2(C)C(C3C(C)=CC2(C)C(=O)C3(C)O)C(C)(O)C1=O (stereo not drawn)
 : -2.8%	-4.6%	nt	?	nt	-11.3%[46.1 µM]	nt	nt
CN(C)c1ccc(/C=N/NC(=O)CN(c2ccccc2Cl)S(C)(=O)=O)cc1Br
 : -6.1%	-3.3%	-9.1%	?	20.5%	-27.2%	-4.2%	0.4%
Cc1nc2nc(-c3ccc(Cl)cc3)[nH]n2c(=O)c1C
 : nt	nt	-1.6%	2.6%	2.1%	nt	0.4%	-12.6%
Cc1ccc(NC(=O)CSc2nnc(NC(=O)c3ccc(S(=O)(=O)N4CCOCC4)cc3)s2)cc1
 : -9.6%	16.6%	2.6%	?	-8.6%	?	-2.7%	-9.7%
Cc1ccc(C(=O)Cn2nnc(-c3ccccc3-n3cnnn3)n2)cc1
 : -0.6%	nt	-11.7%	15.0%	8.2%	27.7%	2.9%	2.6%

Next part
Each structure is followed by: RE007 growth inh	2A StopGo	NS1 function inh	Marburg entry inh	Cruzain noTriton	LASV entry inh	Cruzain Triton	SARS PLpro yeast
O=C1NCCN/C1=C\C(=O)c1ccccc1
 : -7.8%	nt	12.3%	?	-3.7%	0.3%	-3.4%	-0.5%
CCOC(=O)c1cccc(NC(=O)c2oc3c(c2C)-c2[nH]ncc2CC3)c1
 : nt	9.2%	nt	?	-9.2%	-23.8%[46.1 µM]	-7.8%	nt
O=C(N1CCNCC1)N1CCOCC1
 : nt	nt	9.2%	nt	-6.2%	nt	4.2%	1.5%
COc1cc2c(cc1OC)CN(Cc1ccc(OC)c(C)c1OC)CC2
 : -16.2%	-4.0%	-8.5%	?	-4.9%	1.4%	3.7%	?
O=C(O)CC(C(=O)NC1CCCCC1)C1CCCO1 (stereo not drawn)
 : 8.2%	-5.6%	-4.8%	13.6%	-0.8%	0.7%	-2.5%	-1.6%
COCCSc1ccccc1C(=O)Nc1cc(C)ccn1
 : -11.8%	-6.6%	-5.6%	-12.0%	11.5%	3.2%	-0.2%	-1.8%
CN1CCc2nc(SCc3ccccc3Br)c(C#N)cc2C1
 : -21.0%	-2.3%	7.0%	-7.9%	nt	-12.9%	nt	-0.2%
O=C(CSc1nncn2c1cc1sccc12)Nc1ccccc1C(F)(F)F
 : nt	-11.2%	nt	nt	-10.8%	7.9%[46.1 µM]	-0.7%	nt
COc1ccc(Nc2ccnc(Nc3ccc(OC)cc3)n2)cc1
 : 11.6%	?	5.8%	?	4.7%	?	-6.7%	-2.8%
CCOc1ccc(CNC(=O)CCc2c(C)nn(-c3ccc(N4CCOCC4)nn3)c2C)cc1
 : nt	-9.6%	nt	nt	-16.2%	15.6%[46.1 µM]	-1.1%	nt
Cc1cc2nc(C3CCN(C(=S)NCC(C)C)CC3)[nH]c2cc1C
 : -1.9%	0.0%	-4.4%	1.8%	7.9%	nt	4.8%	10.1%
COc1cccc(-c2cc(C(=O)N3CCN(c4ccccc4OC)CC3)no2)c1
 : 3.0%	-11.2%&-5.2%	-57.8%	-1.8%&-25.6%[46.1 µM]	?	-20.5%	-9.2%	-7.5%
CCCc1cc(=O)n2[nH]c(-c3cc(OC)c(OC)c(OC)c3)nc2n1
 : 5.1%	-2.0%	7.2%	0.1%	-4.3%	1.8%	3.1%	-1.7%
CCOC(=O)n1c(=O)n(Cc2c(Cl)cccc2Cl)c2ccccc21
 : 5.3%	-9.7%	0.9%	-0.8%	1.8%	-14.4%	-3.1%	0.2%
Cc1cc(S(=O)(=O)N2CCOCC2)ccc1OCC(=O)NCc1ccco1
 : -3.1%	-15.2%	3.4%	8.1%[46.1 µM]	nt	5.7%	nt	-1.1%
Cc1ccc(NC(=O)CSc2nccn2C)cc1F
 : 2.2%	27.0%	-5.5%	?	nt	3.5%[46.1 µM]	nt	0.4%
O=S(=O)(NC1CC1)c1ccc(S(=O)(=O)N2CCN3CCCC3C2)cc1 (stereo not drawn)
 : 6.2%	8.9%	-0.5%	17.0%	-1.7%	-2.3%	-0.1%	-8.0%
CCOC(=O)c1c(C)n(C)c2cc(Br)c(C)cc12
 : -0.8%	nt	4.2%	-11.7%	?	15.1%	-8.8%	7.4%
CCn1cc(C(=O)OCC(=O)Nc2c(C)cccc2C)c(=O)c2ccc(C)nc21
 : 1.1%	-19.4%	nt	?	nt	-4.1%	nt	-0.5%
Cc1ccc(S(=O)(=O)N2CCCC(C(=O)NCC3CCCO3)C2)cc1 (stereo not drawn)
 : 37.0%	-16.6%	-1.2%	15.5%[46.1 µM]	nt	nt	nt	3.1%

The list goes on:
Each structure is followed by: RE007 growth inh	2A StopGo	NS1 function inh	Marburg entry inh	Cruzain noTriton	LASV entry inh	Cruzain Triton	SARS PLpro yeast
COC(=O)c1c(NC(=O)COC(=O)Cn2cnc3ccccc32)sc(C)c1C
 : -2.3%	5.7%	-45.3%	9.5%[46.1 µM]	2.0%	3.3%	-4.3%	-11.7%
O=C(N/N=C/C=C/c1cccc([N+](=O)[O-])c1)C(O)c1ccccc1 (stereo not drawn)
 : -15.9%	46.0%[activator]	5.9%	nt	nt	nt	nt	1.3%
COc1cc2[nH]c(=O)n(CCCC(=O)NCCc3ccccc3)c(=O)c2cc1OC
 : 12.4%	-7.3%	3.5%	?	0.8%	1.41µM*	-4.6%	6.3%
CC(=O)Nc1ccc(S(=O)(=O)NNC(=O)c2ccc([N+](=O)[O-])cc2)cc1
 : -8.2%	8.0%	-1.9%	nt	nt	nt	nt	18.2%
COc1ccccc1CNC(=O)c1ccc(N2Cc3cccc(OC)c3Oc3ncccc32)s1
 : nt	-26.2%	nt	nt	-11.3%	-15.1%[46.1 µM]	-0.2%	nt
O=S(=O)(NCCOc1ccccc1Cl)c1ccc2oc3ccccc3c2c1
 : 15.5%	8.9%	nt	-15.3%	nt	-25.5%	nt	nt
CN1C(=O)C(O)(CC(=O)c2cccnc2)c2ccccc21 (stereo not drawn)
 : 4.6%	0.9%	-15.1%	?	-2.7%	24.2%	0.8%	-11.3%
COc1ccc(C(=O)Nc2cc3c(cc2OC)CCCC3)cc1Br
 : -9.0%	-14.5%	-1.7%	?	?	32.4%	-6.7%	2.9%
CCCCn1c(C(C)NC(=O)COC)nc2ccccc21 (stereo not drawn)
 : 0.3%	8.3%	0.3%	-19.1%	3.3%	3.4%	-3.6%	8.5%
C(=N\Nc1nc2ccccc2s1)/c1cccs1
 : 16.3%	-16.2%	-14.9%	?	-1.6%	?	-5.3%	-1.4%

Entries of single compounds, quoted from the list. Values in the order: RE007 growth inh, 2A StopGo, NS1 function inh, Marburg entry inh, Cruzain noTriton, LASV entry inh, Cruzain Triton, SARS PLpro yeast
Listed for O=S(=O)(NCCOc1ccccc1Cl)c1ccc2oc3ccccc3c2c1 → 15.5%, 8.9%, nt, -15.3%, nt, -25.5%, nt, nt
Listed for COc1ccc(C(=O)Nc2cc3c(cc2OC)CCCC3)cc1Br → -9.0%, -14.5%, -1.7%, ?, ?, 32.4%, -6.7%, 2.9%
